Mtb bLac sens: beta-lactam sensitization of Mtb H37Rv; 330,000 tested, 0.27% active; inhibition, % at 25 µM; M. tuberculosis H37Rv growth with meropenem, percent inhibition; hits of this screen are not shown here; AID 434955;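 active means about 74% or more and at least 40 points above the plate without the antibiotic, then above 30% in a dose series; inconclusive means first-round hits that could not be retested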;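 further: growth measured after seven days incubation then overnight dye step; 0% = bacteria only wells and 100% = bacteria with antibiotic; twin plates without the antibiotic show which effects depend on it; some results filed as inactive read as strong as hits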
YopH inh: YopH (Yersinia) phosphatase inhibition | AID 898 | fluorescence Ex485/Em525 | inhibition, %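 (about 10 µM by stock and volumes)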 | 140,000 tested, 0.16% active;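 active means inhibition of 50% or more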;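 further: controls were vehicle for no effect and minimum signal wells for full effect; inactives centre near -20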
RecA splice inh: blocks M. tuberculosis RecA intein splicing | 290,000 tested, 0.75% active | P9WHJ3 | cell-free RecA intein splicing, fluorescence | inhibition, %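 (about 9 µM by stock and volumes)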 | AID 2221; in the data active means inhibition above about 30%; inconclusive means no clear call, values can overlap the other calls;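 further: 0% = vehicle wells and 100% = reference inhibitor control wells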
Target sequence (P9WHJ3 whole entry, looked up, canonical isoform): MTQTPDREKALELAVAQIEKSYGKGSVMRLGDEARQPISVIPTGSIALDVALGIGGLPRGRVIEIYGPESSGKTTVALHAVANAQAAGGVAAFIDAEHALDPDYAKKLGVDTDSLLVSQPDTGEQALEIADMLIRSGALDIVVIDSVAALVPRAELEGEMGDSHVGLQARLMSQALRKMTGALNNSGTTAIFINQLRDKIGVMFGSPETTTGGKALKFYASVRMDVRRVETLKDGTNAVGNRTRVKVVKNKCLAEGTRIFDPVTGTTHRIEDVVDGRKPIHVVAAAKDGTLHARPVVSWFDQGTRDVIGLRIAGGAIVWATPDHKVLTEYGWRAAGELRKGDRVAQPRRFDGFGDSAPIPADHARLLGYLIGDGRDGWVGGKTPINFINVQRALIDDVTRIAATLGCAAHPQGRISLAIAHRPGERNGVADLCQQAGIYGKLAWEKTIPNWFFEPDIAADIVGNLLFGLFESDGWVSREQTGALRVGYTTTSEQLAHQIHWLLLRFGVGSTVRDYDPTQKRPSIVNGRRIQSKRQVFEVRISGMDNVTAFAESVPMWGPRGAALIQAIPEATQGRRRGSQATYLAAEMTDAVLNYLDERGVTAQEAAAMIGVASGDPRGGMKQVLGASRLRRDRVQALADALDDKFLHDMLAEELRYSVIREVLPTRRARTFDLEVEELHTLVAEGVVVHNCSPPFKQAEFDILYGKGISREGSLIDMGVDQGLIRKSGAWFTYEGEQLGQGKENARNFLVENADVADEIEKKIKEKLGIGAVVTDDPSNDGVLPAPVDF
Mtb H37Rv: M. tuberculosis H37Rv growth inhibitors, H37Rv strain (AID 1626). 220,000 tested, 0.95% active. one-dose inhibition, % at 10 µM; IC50 in µM for titrated hits. M. tuberculosis H37Rv growth inhibition; higher % means a stronger effect;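 active means confirmed in a dose series; inconclusive means inhibition above 80% but not taken into the dose series; inactive means below 80% or under 30% at every dose of the series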;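 further: bacteria incubated seven days before Alamar blue readout; 0% = bacteria only wells and 100% = bacteria with antibiotic wells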
Arbovirus anti: arbovirus infection inhibition | arbovirus infection cell-based antiviral screen | inhibition, % at 10 µM | AID 1251 | 200,000 tested, 0.37% active;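 active means inhibition from about 30%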;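 further: bluetongue infection of BSR cells; cell survival read as ATP light after 72 h; 0% = infected wells without compound and 100% = uninfected wells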
Arbovirus anti repeat: recorded beside Arbovirus anti, whose call it bears; inhibition, %; measured here: 10K subset replicate screen; many hits read low in the repeat;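 first of two repeat runs on a subset; 0% = infected and 100% = uninfected wells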
Starred values were filed as active, the others as inactive; u = inconclusive; x = no result given.

The first 4 records as a preview:
SMILES | Mtb bLac sens | YopH inh | RecA splice inh | Mtb H37Rv | Arbovirus anti | others
CCOC(=O)NC(=O)/C(N=Nc1ccc(C(F)(F)F)cc1)=C(\C)O | -10 | x | -1.7 | -5% | 3
O=C(O)CC(NC(=O)C12CC3CC(CC(C3)C1)C2)c1ccc(Cl)cc1 (stereo unspecified) | -7 | x | 5.0 | x | x
Cc1cccc(-n2c(C)cc(/C=C3\C(=N)N4N=C(CC(C)C)SC4=NC3=O)c2C)c1 | -1 | -34 | -4.1 | -5% | 12
COc1ccc(Cc2nc(-c3ccncc3)no2)cc1 | -1 | x | 1.1 | 0% | -1

This part in full, previewed entries included:
SMILES | Mtb bLac sens | YopH inh | RecA splice inh | Mtb H37Rv | Arbovirus anti | others
CCOC(=O)NC(=O)/C(N=Nc1ccc(C(F)(F)F)cc1)=C(\C)O | -10 | x | -1.7 | -5% | 3
O=C(O)CC(NC(=O)C12CC3CC(CC(C3)C1)C2)c1ccc(Cl)cc1 (stereo unspecified) | -7 | x | 5.0 | x | x
Cc1cccc(-n2c(C)cc(/C=C3\C(=N)N4N=C(CC(C)C)SC4=NC3=O)c2C)c1 | -1 | -34 | -4.1 | -5% | 12
COc1ccc(Cc2nc(-c3ccncc3)no2)cc1 | -1 | x | 1.1 | 0% | -1
O=C(Nc1ccc(F)cc1F)NC1CCN(S(=O)(=O)c2ccc(F)cc2)CC1 | -4 | x | -0.5 | 5% | -2
O=c1c2ccccc2nnn1CSc1nnnn1-c1ccc(O)cc1 | -3 | x | -0.9 | 7% | 11
CCS(=O)(=O)c1ccccc1C(=O)NC1CCCc2ccccc21 (stereo unspecified) | 8 | x | -0.9 | x | x
Cc1cc(OC(=O)c2ccccc2[N+](=O)[O-])c([N+](=O)[O-])c(=O)[nH]1 | 1 | x | 1.5 | x | x
CCOC(=O)C(NC(C)=O)(Nc1ccc(F)cc1)C(F)(F)F (stereo unspecified) | -9 | -23 | 1.3 | 3% | 0
CC1CCCCN1CCNC(=O)C1CCN(S(=O)(=O)c2cccc3nsnc23)CC1 (stereo unspecified) | 1 | x | -1.9 | x | x
CCCn1c(SCC(=O)Nc2ccc3c(c2)CCC3)n[nH]c1=O | 10 | -26 | 2.0 | 24% | 6
CCOc1cc(C(=O)NCCOC)ccc1OC | -1 | -22 | x | 8% | 4

Reprinted from the results shown, three compounds:
SMILES | Mtb bLac sens | YopH inh | RecA splice inh | Mtb H37Rv | Arbovirus anti | others
CC1CCCCN1CCNC(=O)C1CCN(S(=O)(=O)c2cccc3nsnc23)CC1 (stereo unspecified) | 1 | x | -1.9 | x | x
CCCn1c(SCC(=O)Nc2ccc3c(c2)CCC3)n[nH]c1=O | 10 | -26 | 2.0 | 24% | 6
CCOc1cc(C(=O)NCCOC)ccc1OC | -1 | -22 | x | 8% | 4

Next section.
SMILES | Mtb bLac sens | YopH inh | RecA splice inh | Mtb H37Rv | Arbovirus anti | others
CCOC(=O)N1CCN(C(=O)C(C)n2nc(C)n3c(cc4sccc43)c2=O)CC1 (stereo unspecified) | 8 | -36 | -1.8 | -10% | -7
Cc1ccc(Nc2cc(=O)[nH]c(=O)[nH]2)cc1Cl | 2 | x | -0.3 | -4% | 0
O=C(Nc1cccc(S(=O)(=O)N2CCCCCC2)c1)C1CC(=O)N(c2ccc3c(c2)OCCO3)C1 (stereo unspecified) | -7 | x | -1.0 | x | x
CC(=O)NC(CC(=O)N(C)Cc1cccc(Cl)c1Cl)c1ccccc1 (stereo unspecified) | -10 | x | -1.4 | -6% | 10
CCOc1ccccc1C(=O)Nc1nnc(COC)s1 | -11 | -12 | -1.7 | 1% | 3
CCc1ccccc1NC(=O)COc1cccc2ccc(C)nc12 | -2 | -29 | -1.7 | 8% | 2
O=C(O)CC1Oc2ccc(Cl)cc2NC1=O (stereo unspecified) | -4 | -41 | 2.2 | -1% | 7
Cc1cccc(-c2nnc(-c3cccc(NC(=O)Cc4cccs4)c3)o2)c1 | 1 | -33 | -2.1 | 3% | 18
CCc1cc(C(=O)NNC(=O)CCN2CCN(c3ccccc3)CC2)sc1C | 1 | x | 1.2 | x | x
COC(=O)CCCC(=O)N1CCCC(C(=O)c2ccc(OC)cc2C)C1 (stereo unspecified) | -3 | x | 2.3 | -3% | 11
CCN(c1ccccc1)S(=O)(=O)c1ccc(C(=O)Oc2ccc(C(C)=O)cc2)cc1 | 65 | -21 | 21 | 5% | -5
Cc1ccccc1-c1nc(P(=O)(c2ccccc2)c2ccccc2)c(N2CCOCC2)o1 | -2 | x | 15 | 9% | x
O=C(Nc1cc(F)ccc1F)C1CCCO1 (stereo unspecified) | -9 | -6 | 0.3 | -4% | 8
CCNS(=O)(=O)c1ccc(CCC(=O)N2CCOCC2)cc1 | -5 | x | -1.8 | x | x
Cc1ccnc(NC(=O)CNC(=O)c2ccc3c(c2)OCO3)c1 | -4 | x | 5.9 | x | x
Nc1ccccc1-c1nnc2n1CCCCC2 | -6 | x | 1.0 | x | x
Cc1ccc2[nH]c(=O)c3cc(C(=O)NCC4CCCO4)sc3c2c1 (stereo unspecified) | 0 | x | -5.1 | 0% | -4
CSc1nc2ccc(S(=O)(=O)N(C)C)cc2s1 | -4 | -21 | 0.7 | 2% | -9
CC(CCc1ccccc1)NCC(O)c1ccc(O)c(C(N)=O)c1 (stereo unspecified) | -8 | -14 | 0.2 | 1% | 14
CCCCSCCCNC(=S)Nc1ccccc1C | -8 | x | 2.4 | 5% | 8
CCN(CC)CCOC(=O)c1ccc(NC(=O)COc2cc(=O)n(CC)c3ccccc23)cc1 | 5 | -30 | 0.1 | -11% | 0
CN(c1ccccc1)S(=O)(=O)c1cccc(C(=O)NCCc2ccc(O)c(O)c2)c1 | -4 | x | -2.3 | 3% | -6
COCCCn1c(N)c(C(=O)Nc2ccccc2)c2nc3ccccc3nc21 | 7 | x | 0.9 | 16% | x
O=C(NC1CCCC1)C(c1ccccc1)N(C(=O)c1ccno1)c1cccnc1 (stereo unspecified) | -7 | -20 | 1.5 | -10% | -3
NC(=O)NC(=O)COC(=O)c1ccccc1OCc1ccc(F)cc1 | -2 | x | 1.0 | 4% | x
COc1ccc(NC(=O)c2nc[nH]c2C(=O)N2CCN(C(=O)OC(C)(C)C)CC2)cc1 | -2 | x | 2.6 | -9% | x
Cc1cc2nc3c(nc2cc1C)C1(C(=O)O)CCC3(C)C1(C)C (stereo unspecified) | 2 | -28 | 1.7 | -4% | 8
NC(=O)C1CCN(CC(=O)Nc2ccccc2Sc2ccc(Cl)cc2)CC1 | 3 | -31 | 1.1 | 7% | 7
Nc1nc(CN2CCOCC2)cs1 | -2 | -26 | 6.5 | -2% | 1
COc1ccc(O)c(/C=N/Nc2nc3ccccc3[nH]2)c1 | 3 | x | -1.2 | -3% | 2
CCOc1cccc(CNc2nnnn2C)c1 | 0 | x | -1.5 | x | x
CCc1ccc(C2=NN(S(C)(=O)=O)C(c3cccs3)C2)cc1 (stereo unspecified) | 3 | -29 | -3.8 | -4% | 10
COc1ccccc1/C=C/C(=O)NC(=S)Nc1ccc(S(=O)(=O)N(C)c2ccccc2)cc1 | -6 | -36 | -1.9 | 3% | -10
COc1ccc(CNC(=O)[C@@H](NC(=O)C2CCN(S(=O)(=O)c3ccc(C)cc3)CC2)C(C)C)cc1OC | 4 | x | -1.1 | x | x
CCn1c(Oc2cccc(Br)c2)nc2c1c(=O)n(C)c(=O)n2C | -3 | x | -0.4 | x | x
CCC(C)(C)n1nnnc1CN1CCc2ccccc21 | -15 | -10 | 3.1 | 11% | 3
CCc1ccccc1NC(=O)C1CC(c2ccc(F)cc2)=NO1 (stereo unspecified) | 97 | -3 | 4.8 | -10% | 4
CN(C)S(=O)(=O)c1cccc(NC(=S)Nc2ccc(Cl)cc2Cl)c1 | 5 | -28 | 6.9 | -13% | 5
Cc1cc(OCC(=O)N2CCN(c3ccccn3)CC2)cc(C)c1Br | u | x | 9.6 | x | x
CCCC(C)c1nnc(NC(=O)C2CC(=O)N(c3ccc(OCC)cc3)C2)s1 (stereo unspecified) | 3 | x | -3.8 | x | x
NC(=O)C1CCN(C(=O)N2c3ccccc3Sc3ccccc32)CC1 | -3 | 2 | 0.3 | 1% | -5
CCOC(=O)c1c(NC(=O)CSc2nc3c(c(=O)n(C)c(=O)n3C)n2CC)sc(C)c1C | 3 | x | 1.3 | -1% | x
CCN1CNC(=S)N(c2cc(C)ccc2C)C1 | -2 | -79 | 1.6 | 2% | 1
Cc1cccc(C)c1OCc1nnc(SCC(=O)Nc2ccccc2F)o1 | -1 | -31 | 0.0 | -3% | 4 | Arbovirus anti repeat=6
O=C(CN1C(=O)C(=O)N(Cc2ccco2)C1=O)NC1CCCCC1 | 5 | x | -2.1 | -8% | 2
COCCCn1c(SCC(=O)N2CCCCC2C)nnc1-c1ccco1 (stereo unspecified) | -2 | -10 | 0.6 | -6% | 3
Cc1cc(C(=O)N2CCC3(CC2)OCCO3)cs1 | -10 | 7 | 2.3 | 16% | -1
NC(N)=N/N=C/c1cccc(Cl)c1Cl | -2 | x | 1.3 | 0% | -34
CCCOc1nc(SCCC)nc2c1cnn2-c1ccccc1 | 4 | x | -1.2 | 0% | x
COc1ccc(C(=O)N/N=C/c2ccccn2)cc1OC | 54 | x | -2.2 | -3% | 10
O=C(C1CCCCCC1)N1CC[C@@H](N2CCC(O)CC2)[C@H](O)C1 | -4 | x | -3.5 | x | x
CCOC(=O)N1CCN(CCC(=O)c2ccc(Br)cc2)CC1 | 99 | x | 1.9 | x | x
CC(C)c1nnc(NC(=O)C2CCCN2C(=O)Nc2ccc(F)cc2)s1 (stereo unspecified) | -7 | x | -0.1 | x | x
O=C(N1CCOCC1)C(F)(F)C(F)(F)C(F)(F)C(F)(F)C(=O)N1CCOCC1 | 12 | -10 | -1.1 | -9% | 9
COc1ccc(N2C(=O)c3ccc(C(=O)Nc4ccccc4O)cc3C2=O)cc1 | 5 | x | -0.1 | x | x
COc1ccc(C)cc1S(=O)(=O)N(C)CC(=O)NCc1ccncc1 | -1 | x | -3.1 | x | x
CCN(Cc1ccncc1)Cc1cn(C)nc1-c1ccc(Oc2ccccc2)cc1 | 49 | x | 7.3 | -5% | 3
CC(=O)N1CCc2cc(S(=O)(=O)NCCC(=O)Nc3cc(C)cc(C)c3)ccc21 | -7 | -20 | x | 5% | 0
COC(=O)N(C)CCCC1(C)C(=O)N(C)c2ccc(O)cc21 (stereo unspecified) | -2 | -48 | -11 | 1% | 2
CC(=O)Nc1ccccc1C(=O)C(=O)Nc1cccc(C(=O)NCc2ccccc2)c1 | 5 | -3 | -0.5 | 4% | -6
Cc1cc(S(=O)(=O)N2CCCOC2CNC(=O)C(=O)NCCCN2CCOCC2)ccc1F (stereo unspecified) | -20 | x | 0.9 | x | x
CCCCn1c(Nc2ccc(OC)cc2)nc2ccccc21 | -18 | x | 1.9 | x | x
O=C(NCc1ccccc1Cl)C1(S(=O)(=O)c2ccc(Cl)cc2)CC1 | 3 | x | 3.4 | x | x

Reprinted at random: 6 entries already listed.
SMILES | Mtb bLac sens | YopH inh | RecA splice inh | Mtb H37Rv | Arbovirus anti | others
CCOC(=O)N1CCN(CCC(=O)c2ccc(Br)cc2)CC1 | 99 | x | 1.9 | x | x
CCCOc1nc(SCCC)nc2c1cnn2-c1ccccc1 | 4 | x | -1.2 | 0% | x
Cc1cc(S(=O)(=O)N2CCCOC2CNC(=O)C(=O)NCCCN2CCOCC2)ccc1F (stereo unspecified) | -20 | x | 0.9 | x | x
O=C(N1CCOCC1)C(F)(F)C(F)(F)C(F)(F)C(F)(F)C(=O)N1CCOCC1 | 12 | -10 | -1.1 | -9% | 9
CCN(Cc1ccncc1)Cc1cn(C)nc1-c1ccc(Oc2ccccc2)cc1 | 49 | x | 7.3 | -5% | 3
CCCCn1c(Nc2ccc(OC)cc2)nc2ccccc21 | -18 | x | 1.9 | x | x

The list is partial (hit frequency here may not be typical).
